# Source: PubChem
# Ecoli growth = inhibitors of Escherichia coli growth; OD600 absorbance (concentration not given with the values); OD600, 23 h; hits give low values; 330,000 tested, 0.21% active;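 active = OD600 absorbance below the run mean of sample wells minus 3.6 SD, in any replicate, cut at about 0.56 in these data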;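 note: stock transfer was 300 nL into about 60 µL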
# Vif A3G = HIV-1 Vif–A3G interaction blockers – biochemical, TR-FRET, GST-Vif 1-94, biotin-A3G peptide, dose response retest, primary screen (AID 1117319) | 260,000 tested, 0.57% active | inhibition, %; hits with a dose series show IC50 in µM | TR-FRET GST-Vif / biotin-A3G peptide binding; higher % means a stronger effect; test concentration not given here; strong numbers were not always called active;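 active = above the screen mean plus three standard deviations and confirmed in dose response; inconclusive = results disagree or hit not tested in dose response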;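 note: Vif residues 1-94 fused to GST binding biotinylated APOBEC3G peptide 110-148; 0% = full assay without inhibitor and 100% = GST in place of GST-Vif; retest series ran down from 100 µM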
# FGF22 binding = shifts melting point of recombinant human FGF22 | recombinant FGF22 thermal shift, SYPRO orange fluorescence; percent of sucrose octasulfate shift, DMSO zero | Q9HCT0 | AID 651658 | 340,000 tested, 1.5% active | calls only at 9.99 µM;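 active = melting point raised past a set limit in the mean and every replicate; inconclusive = no clear call; three in four hits are not shown here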
# Target sequence (Q9HCT0 whole entry, looked up): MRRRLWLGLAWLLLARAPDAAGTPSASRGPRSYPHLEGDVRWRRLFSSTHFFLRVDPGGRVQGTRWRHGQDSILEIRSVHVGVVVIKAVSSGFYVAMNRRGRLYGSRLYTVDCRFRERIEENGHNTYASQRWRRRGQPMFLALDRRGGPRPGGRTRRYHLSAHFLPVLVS
# MLL AF4-AF9 inh = inhibitors of human MLL-AF4/AF9 interaction. inhibition, % at 10 µM. P42568. 350,000 tested, 0.47% active. AlphaScreen, biotin-AF4 peptide binding to FLAG-AF9;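 active = every replicate reaching a set inhibition limit, whatever the replicate mean, cut at about 25% in these data; inconclusive = mean inhibition reaches that limit but some replicates miss it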;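 note: 0% = plate neutral control median and 100% = total signal loss; the record names both 10 and 1 µM as test concentration; the first replicate is given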
# ALR inh = human ALR oxidase inhibition via reduced H2O2; purified ALR, DTT oxidation, H2O2 HRP-luminol luminescence; inhibition, % (concentration not given with the values); 290,000 tested, 3.8% active; AID 485317;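 active = mean and each replicate at 75% or more; inconclusive = only one of the two met; inactive = neither met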;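 note: stock transfer was 7.5 nL into about 7.5 µL; 0% = neutral wells and 100% = wells with inactivated enzyme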
# Target sequence (P55789 whole entry, looked up): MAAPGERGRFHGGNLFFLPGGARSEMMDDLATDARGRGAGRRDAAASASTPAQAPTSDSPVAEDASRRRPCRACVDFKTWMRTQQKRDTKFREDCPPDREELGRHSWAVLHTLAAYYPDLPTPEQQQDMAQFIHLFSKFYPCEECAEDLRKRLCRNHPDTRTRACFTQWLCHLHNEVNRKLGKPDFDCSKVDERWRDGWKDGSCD
# HNF4A DNA FP = change in binding of human HNF4 alpha to DNA | HNF4a-FITC DNA binding, fluorescence polarization, 1 h | activity change, % at 10 µM | AID 1224865 | P41235 | 360,000 tested, 0.3% active; in the data active = activity change above about 30%, passing the limit was not always enough;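 note: controls were the assay level and a saturating level of protein; the project sought stronger binding though the title names inhibitors; some compounds called inactive have numbers as strong as hits; positive values seem to mean higher polarization but the record does not say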
# Target sequence (P41235 whole entry, looked up): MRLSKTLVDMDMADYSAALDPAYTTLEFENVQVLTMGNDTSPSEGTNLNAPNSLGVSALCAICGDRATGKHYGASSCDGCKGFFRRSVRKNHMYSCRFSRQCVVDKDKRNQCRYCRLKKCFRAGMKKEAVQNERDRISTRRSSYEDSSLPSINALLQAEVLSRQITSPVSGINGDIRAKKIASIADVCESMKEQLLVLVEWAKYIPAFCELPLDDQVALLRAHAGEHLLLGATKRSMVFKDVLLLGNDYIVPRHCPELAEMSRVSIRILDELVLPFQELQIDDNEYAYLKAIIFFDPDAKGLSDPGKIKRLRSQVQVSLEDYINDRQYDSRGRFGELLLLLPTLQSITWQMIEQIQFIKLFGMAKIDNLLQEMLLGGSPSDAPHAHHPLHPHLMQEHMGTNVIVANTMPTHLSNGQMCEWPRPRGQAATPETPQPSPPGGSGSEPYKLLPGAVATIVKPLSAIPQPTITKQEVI
# Ecoli rRNA inh = selective bacterial rRNA inhibition in E. coli | 350,000 tested, 1.6% active | E. coli WT GFP vs humanized-ribosome RFP mutants, fluorescence, 24 h; hits give low values; DMSO median 0, no signal -100 | GFP signal change (wild-type ribosome), % (test concentration not listed);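 active = significant combined selectivity score with lowered wild-type GFP, culture density cut under 30%, mutant RFP and density less affected; inactive = any of these conditions unmet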; note: one replicate is shown; some compounds called inactive have numbers as strong as hits
# Ecoli rRNA inh OD600 = further read-out of Ecoli rRNA inh, marked with its call; OD600 change, %; measured here: OD600 growth;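 optical density of the mix in the first replicate; 0 = DMSO median and -100 = no signal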
# Ecoli rRNA inh RFP = also measured in Ecoli rRNA inh; calls as there; RFP signal change, %; measured here: RFP humanized mutant strains;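 first replicate; 0 = DMSO median and -100 = no signal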
# An asterisk follows results filed as active; i = inactive; ? = inconclusive; . = not tested or not shown; & = joins results of further samples.
# Fields: Ecoli growth, Vif A3G, FGF22 binding, MLL AF4-AF9 inh, ALR inh, HNF4A DNA FP, Ecoli rRNA inh, Ecoli rRNA inh OD600, Ecoli rRNA inh RFP
COc1cccc(CNC(=S)Nc2cc(C)cc(C)c2)c1
    0.67, -15%, i, -1.4, 4, 0.7, 15, 12, 3.0
COCC(=O)N1CC2(CN(C(C)=O)C2)c2c([nH]c3cc(OC)ccc23)[C@@H]1CO
    ., ., i, -1.7, ., ., 5, 20, -0.3
O=C(CSc1nc2ccccc2s1)c1ccc(O)cc1O
    0.63, 8%, i, -1.2, -2, 2.4, -42, -61, -13
CCc1nc2ccc(C(=O)N3CCN(C(=O)c4ccco4)CC3)cn2c1N(C)C(=O)C1CCCCC1
    ., ., i, -4.1, ., -2.8, 4, 3, 2.4
CCN(CC(=O)N1CCN(c2ccccc2)CC1)S(=O)(=O)c1ccc(C)cc1
    0.71, -5%, i, -1.2, 64, 0.0, -15, -19, 3.5
COc1ccc(S(=O)(=O)N(C)C[C@@H]2Oc3cc(-c4ccccc4OC)ccc3S(=O)(=O)N([C@H](C)CO)C[C@@H]2C)cc1
    ., ., i, 1.0, ., ., 0, 5, -0.3
C=C(C)c1cccc(C(C)(C)NC(=O)Nc2cc(C)ccn2)c1
    0.71, -6%, i, -4.6, 0, 1.9, ., ., .
O=C(Nc1ccccc1-c1nnn(CC(=O)N2CCOCC2)n1)c1ccccc1F
    0.64, 5%, i, -6.7, -4, 1.0, 11, 9, 4.8
CCc1ccc(CNCCSc2nnnn2C)cc1
    0.7, 2%, ., ., 1, -0.5, ., ., .
COc1ccc(/C=C(/NC(=O)c2ccco2)C(=O)Nc2ccc(C(=O)O)cc2)cc1
    0.69, -3%, i, -0.1, -4, -2.6, -1, 6, -1.5
COc1ccc(C(=O)Nc2ccc(C(=O)OCC(=O)c3cccc4ccccc34)cc2)cc1
    ., -4%, i, 1.2, -11, 4.2, 14, 9, -0.1
CCOC(=O)c1c(OCCO)nn(-c2ccc(Cl)cc2)c1N
    0.7, -3%, i, -5.1, -9, -1.1, -2, -9, 53
O=C(NCCc1ccncc1)[C@H]1[C@H](CO)[C@H]2Cn3c(ccc(-c4ccncc4)c3=O)[C@@H]1N2
    ., ., i, -3.3, ., ., 2, 1, -1.9
Cc1ccc(S(=O)(=O)N2CCOCC2)cc1C(=O)OCC(=O)N1CCCCC1
    0.69, ., i, 1.8, ., 1.7, 2, -6, 2.3
CCOC(=O)CCc1c(C)nc2c(c(C)nn2-c2ccc(C)cc2)c1C
    0.67, -43%, i, -0.4, -8, -0.5, -3, 14, -0.5
CCOC(=O)[C@]12CCC=C1N(CCC1=CCCCC1)C(=O)[C@H](CC(=O)NCc1ccccc1)C2
    ., ., i, 0.8, ., 6.2, 3, 7, 3.4
O=C(CN1C(=O)c2ccccc2S1(=O)=O)c1ccc(OC(F)F)cc1
    0.69, ., ., ., -4, 3.5, ., ., .
O=C(Cc1ccccn1)NCC[C@H]1CC[C@@H](NS(=O)(=O)c2ccccc2)[C@@H](CO)O1
    ., ., i, -0.6, ., ., 3, 9, -6.2
Cc1sc2nc(SCC(=O)N3CCOCC3)[nH]c(=O)c2c1C
    0.72, 78%, i, -6.5, 39, 2.5, -6, -11, -3.8
CO[C@H]1CN(C)C(=O)c2cc(NC(=O)CC(F)(F)F)ccc2OC[C@H](C)N(C(=O)c2ccccc2F)C[C@@H]1C
    ., ., i, -0.3, ., ., 3, 2, -1.1

# Fields: Ecoli growth, Vif A3G, FGF22 binding, MLL AF4-AF9 inh, ALR inh, HNF4A DNA FP, Ecoli rRNA inh, Ecoli rRNA inh OD600, Ecoli rRNA inh RFP
C[C@@H]1CN([C@@H](C)CO)C(=O)c2c(c3ccccc3n2C)-c2ccccc2CO[C@@H]1CN(C)Cc1ccc(C(=O)O)cc1
    ., ., i, -0.1, ., ., -1, -2, -3.8
O=C(NC(=S)NCCc1ccc(Cl)cc1)c1ccco1
    0.72, 3%, i, -1.6, -2, 1.5, -1, 0, 3.8
COc1ccccc1NC(=O)Nc1c(C)n(C)n(-c2ccccc2)c1=O
    0.69, -6%, ., ., ., 3.4, ., ., .
Cc1ccc(NS(=O)(=O)c2ccc(-c3csc(C)n3)s2)c(C)c1
    0.65, -3%, i, 0.9, -14, -0.4, -38*, -29*, -3.1*
CC(C)NC(=O)Nc1ccc2c(c1)CC(=O)N([C@@H](C)CO)C[C@@H](C)[C@H](CN(C)Cc1ccncc1)O2
    ., ., i, -1.5, ., ., 0, -1, -2.7
CCN(CC)S(=O)(=O)c1ccc(C)c(NC(=O)COc2ccc(Br)cc2Cl)c1
    0.71, ., i, -4.8, -3, -2.1, 0, 8, -2.2
COC(=O)[C@@H]1N[C@@H]2c3ccc(C4=CCCCC4)c(=O)n3C[C@@H]2[C@H]1CO
    ., ., i, 0.7, ., ., 0, 9, -0.8
Cc1nnc(NCc2ccccc2)c2ccccc12
    0.62, -1%, i, -1.3, ., 1.2, -7, 1, 3.5
CCN(CC)C(=O)CSc1nnc2nnc3cc(C)ccc3n12
    0.66, ., i, -0.1, -5, -30, -9, -9, -4.1
Cc1ccc(CN(C)C(=O)c2cccc(S(=O)(=O)N3CCN(Cc4ccccc4)CC3)c2)o1
    0.7, 6%, i, -16, -5, -0.6, 1, -25, -4.8
CO[C@H]1CN(C)C(=O)c2cc(NC(=O)NC(C)C)ccc2OC[C@@H](C)N(C)C[C@@H]1C
    ., ., i, -1.9, ., ., -1, -2, -1.9
C/C(=N/NC(=O)c1cc(-c2ccc(Cl)s2)[nH]n1)c1ccco1
    ., ?, i, -0.3, -2, 5.9, -1, 6, 3.4
NC(=O)c1ccccc1NC(=O)CCCCCn1nnc2ccccc2c1=O
    0.63, 3%, i, -4.8, -11, -5.3, -7, -6, 3.8
CC(C)OC(=O)NCN1C(=O)C2C3C=CC(C3)C2C1=O (centres undefined)
    0.69, 15%, ., ., 7, 0.1, ., ., .
CCCC(=O)Nc1ccc(S(=O)(=O)N2CCC(c3nc4ccccc4[nH]3)CC2)cc1
    0.67, ., i, 0.3, 1, -2.2, -6, -10, -2.6
C[C@H](CO)N1C[C@H](C)[C@H](CN(C)CC2CC2)Oc2ccc(NC(=O)C3CC3)cc2CC1=O
    ., ., i, -0.3, ., ., 2, 1, -0.7
COc1cc(NS(=O)(=O)c2ccc3c(c2)n(C)c(=O)n3C)cc(OC)c1
    0.67, 7%, ., ., -9, 0.1, ., ., .
COc1ccc(C(=O)NCCS(=O)(=O)NCC2CCCO2)cc1 (centres undefined)
    0.67, -11%, i, 0.5, 3, -1.4, 5, 3, 0.7
O=C(Nc1ccccc1)Nc1nnc(COc2ccccc2F)s1
    0.67, 7%, i, ., -2, -3.6, 5, 6, 4.5
O=C(O)CN1CCN(Cc2ccccc2F)C1=O
    0.68, -14%, i, -1.4, -19, -4.5, 4, 8, 0.2

# Fields: Ecoli growth, Vif A3G, FGF22 binding, MLL AF4-AF9 inh, ALR inh, HNF4A DNA FP, Ecoli rRNA inh, Ecoli rRNA inh OD600, Ecoli rRNA inh RFP
COCn1cnc(-c2ccccc2)c1-c1ccccc1
    0.7, ., i, 6.4, 1, 1.6, -28*, 0.0*, 0.0*
Nc1nc(CN2CCN(Cc3ccccc3)CC2)nc(Nc2ccc3c(c2)OCCO3)n1
    0.71, 0%, ., ., ., -0.7, ., ., .
CCN(CC)c1cc(CS(=O)c2ccccc2)nc(-c2ccccc2)n1 (centres undefined)
    0.7, -5%, ., ., 14, 0.6, ., ., .
Cc1cccn2c(=O)c3cc(C(=O)NC4CCS(=O)(=O)C4)sc3nc12 (centres undefined)
    0.7, 6%, i, -0.4, ., 2.5, -2, -6, 13
O=C(CNc1ccc(C(F)(F)F)cc1)Nc1cccc(S(=O)(=O)N2CCCC2)c1
    0.65, ., i, 2.0, ., 1.2, -7, -14, 2.5
COC(=O)c1cc(NS(=O)(=O)c2cccc(Cl)c2)ccc1N1CCOCC1
    0.65, 12%, i, ., 39, 2.2, -4, -14, 4.4
CC(O)C(NS(=O)(=O)c1ccc(Cl)cc1)C(=O)OCc1nnc(-c2ccccc2)o1 (centres undefined)
    0.72, -2%, ., ., 0, 0.5, 1, -4, 5.5
COc1ccc(Cl)cc1CN1C(=O)C(Cc2ccccc2)ON=C1C (centres undefined)
    ., ., i, -3.3, ., -0.8, -15, -30, -8.6
CCOc1cnc(-c2ccccc2F)o1
    0.7, ., i, -0.9, 0, -0.1, 12, 11, -0.2
CC(C)CC#Cc1cnc2c(c1)C(=O)N([C@@H](C)CO)C[C@@H](C)[C@@H](CN(C)C(=O)c1cnccn1)O2
    ., ., i, -4.3, ., ., 1, 0, -4.6
Cc1noc(C)c1NC(=O)Nc1cccc2c1O[C@H](CN(C)C(=O)Nc1ccc3c(c1)OCO3)[C@@H](C)CN([C@@H](C)CO)C2=O
    ., ., i, -3.3, ., ., 5, 7, -0.7
C/C=C/c1ccc(OCC(O)CN(C)Cc2ccc(SC)cc2)c(OC)c1 (centres undefined)
    0.62, -4%, i, 1.3, ., -0.5, 4, -13, 17
Cc1[nH]c2ccc(C(=O)OC(C)C(=O)NC3CCCCC3C)cc2c1C (centres undefined)
    0.7, -4%, i, 2.5, 10, -5.1, ., ., .
COc1ccc(NS(=O)(=O)c2csc(C(=O)Nc3ccccc3)c2)cc1
    0.66, 3%, i, 2.7, -1, 0.9, -43, -35, -11
C[C@H]1CN([C@@H](C)CO)C(=O)CCCn2nncc2CO[C@H]1CN(C)Cc1cccc(O)c1
    ., ., i, 0.0, ., ., 3, -5, -0.7
Cc1ccc(/C=N/N2CCN(Cc3ccccc3)CC2)cc1
    ., -2%, i, -14, 1, 1.9, 6, 9, -1.9
CCOC(=O)CS(=O)(=O)c1nc(-c2ccccc2)cc(C(F)(F)F)n1
    0.69, 2%&15%, ., ., 98*, 3.0, ., ., .
CCc1cnc(N2[C@H](C#N)[C@H](c3ccc(C#Cc4ccccc4F)cc3)[C@H]2CO)s1
    ., ., i, -1.5, ., ., 6, -10, 1.6
O=C(O)c1ccc(-c2ccc(Cl)cc2Cl)o1
    0.67, -4%, ., ., 63, 1.7, ., ., .
C[C@@H]1CN([C@H](C)CO)S(=O)(=O)c2ccc(C#CC3CC3)cc2O[C@@H]1CN(C)C(=O)CN(C)C
    ., ., i, 3.5, ., ., 5, 21, -2.8

# Fields: Ecoli growth, Vif A3G, FGF22 binding, MLL AF4-AF9 inh, ALR inh, HNF4A DNA FP, Ecoli rRNA inh, Ecoli rRNA inh OD600, Ecoli rRNA inh RFP
O=C(CN1C(=O)CCSc2ccccc21)Nc1ccc2c(c1)OCCO2
    0.65, 4%, ., ., -7, 1.6, ., ., .
O=C(CN1C(=O)c2cccc3cccc(c23)C1=O)N1CCCCC1
    0.72, ., i, -2.6, -29, -2.2, 10, 4, -3.6
Cc1ccc(OC(C)C(=O)O)cc1C (centres undefined)
    0.68, -1%, ., ., -3, -2.6, ., ., .
CCc1sc(C(=O)Nc2ccc3c(c2)OCCO3)cc1Br
    ., ., i, 0.9, -8, -1.9, -27, -59, -2.0
C[C@H](CO)N1C[C@H](C)[C@H](CN(C)S(=O)(=O)c2cccs2)Oc2c(NS(=O)(=O)c3ccccc3)cccc2C1=O
    ., ., i, 1.2, ., ., -5, -3, 2.6
COc1cc(/C=N/Nc2ccc(S(N)(=O)=O)cc2[N+](=O)[O-])cc(OC)c1O
    ., -15%, i, -11, 29, -6.0, 1, -1, 0.2
O=C(O)CC1(C(=O)O)CC2C=CC1C2 (centres undefined)
    ., 3%, i, 0.3, ., -1.0, 10, 17, -4.5
COc1ccc(CNC(=O)CC[C@H]2O[C@@H](n3cnc4c(NC(=O)c5ccccc5)ncnc43)[C@H](O)[C@@H]2O)cc1
    ., ., i, -4.3, ., -3.6, 7, 11, 2.4

# Only part of the results is shown. The share of hits here may be higher or lower than overall.
